Screening data: PubChem, several laboratories
Mtb bLac sens – beta-lactam sensitization of Mtb H37Rv; M. tuberculosis H37Rv growth with meropenem, percent inhibition; hits of this screen are not shown here; inhibition, % at 25 µM; actives 0.27% (n = 330,000); AID 434955;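 active = about 74% or more and at least 40 points above the plate without the antibiotic, then above 30% in a dose series; inconclusive = first-round hits that could not be retested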;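 note: growth measured after seven days incubation then overnight dye step; 0% = bacteria only wells and 100% = bacteria with antibiotic; twin plates without the antibiotic show which effects depend on it; some results filed as inactive read as strong as hits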
YopH PTP inh – inhibitors of Yersinia enterocolitica YopH tyrosine phosphatase; fluorescence Ex485/Em525; inhibition, %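 (about 10 µM by stock and volumes)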; actives 0.16% (n = 140,000);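 active = inhibition of 50% or more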;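 note: controls were vehicle for no effect and minimum signal wells for full effect; inactives centre near -20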
Mtb growth – M. tuberculosis H37Rv growth inhibitors, H37Rv strain (AID 1626). M. tuberculosis H37Rv growth inhibition; higher % means a stronger effect. one-dose inhibition, % at 10 µM; IC50 in µM for titrated hits. actives 0.95% (n = 220,000);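 active = confirmed in a dose series; inconclusive = inhibition above 80% but not taken into the dose series; inactive = below 80% or under 30% at every dose of the series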;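 note: bacteria incubated seven days before Alamar blue readout; 0% = bacteria only wells and 100% = bacteria with antibiotic wells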
Arbovirus anti – blocks arbovirus infection | arbovirus infection cell-based antiviral screen | inhibition, % at 10 µM | actives 0.37% (n = 200,000) | AID 1251;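 active = inhibition from about 30%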;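 note: bluetongue infection of BSR cells; cell survival read as ATP light after 72 h; 0% = infected wells without compound and 100% = uninfected wells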
RecA intein inh – blocks M. tuberculosis RecA intein splicing. inhibition, %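 (about 9 µM by stock and volumes)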. AID 2221. cell-free RecA intein splicing, fluorescence. P9WHJ3. actives 0.75% (n = 290,000); in the data active = inhibition above about 30%; inconclusive = no clear call, values can overlap the other calls;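 note: 0% = vehicle wells and 100% = reference inhibitor control wells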
Target sequence (P9WHJ3 whole entry, looked up): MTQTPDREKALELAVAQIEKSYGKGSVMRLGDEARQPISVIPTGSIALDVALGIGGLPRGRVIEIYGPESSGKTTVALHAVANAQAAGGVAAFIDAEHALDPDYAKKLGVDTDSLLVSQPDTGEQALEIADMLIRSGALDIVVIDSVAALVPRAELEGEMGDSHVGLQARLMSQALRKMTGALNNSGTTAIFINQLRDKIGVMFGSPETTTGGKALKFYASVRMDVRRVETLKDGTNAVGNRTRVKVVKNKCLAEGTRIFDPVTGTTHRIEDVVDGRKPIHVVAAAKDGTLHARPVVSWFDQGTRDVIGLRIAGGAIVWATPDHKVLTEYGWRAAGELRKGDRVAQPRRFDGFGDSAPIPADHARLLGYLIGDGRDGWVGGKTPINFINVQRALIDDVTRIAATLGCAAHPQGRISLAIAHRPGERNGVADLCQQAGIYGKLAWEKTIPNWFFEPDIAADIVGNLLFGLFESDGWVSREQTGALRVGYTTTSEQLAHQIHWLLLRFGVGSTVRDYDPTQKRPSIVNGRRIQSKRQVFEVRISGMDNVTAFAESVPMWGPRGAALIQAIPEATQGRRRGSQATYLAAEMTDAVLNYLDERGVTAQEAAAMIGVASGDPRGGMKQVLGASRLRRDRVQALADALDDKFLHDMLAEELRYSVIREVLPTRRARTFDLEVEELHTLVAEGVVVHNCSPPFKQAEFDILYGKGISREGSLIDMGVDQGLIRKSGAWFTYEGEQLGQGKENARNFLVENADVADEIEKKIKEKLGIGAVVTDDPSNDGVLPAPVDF
Arbovirus anti repeat – second read-out of Arbovirus anti, no call of its own (marks repeat the call); inhibition, %; measured here: 10K subset replicate screen; many hits read low in the repeat;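 first of two repeat runs on a subset; 0% = infected and 100% = uninfected wells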
The depositor's hits bear a star; ? = inconclusive; . = no result given.

SMILES	Mtb bLac sens	YopH PTP inh	Mtb growth	Arbovirus anti	RecA intein inh	others
COc1cccc(NC(=O)CSc2nnc(-c3ccoc3C)n2CC2CCCO2)c1 (centres undefined)	-8	23	-5%	12	1.5
COc1ccc(CCn2c3c(c(=O)[nH]c2=O)C(NC(=O)c2cccs2)(C(F)(F)F)C(=O)N3)cc1OC (centres undefined)	4	-13	-8%	-2	-1.7
O=C(N/N=C/c1ccc2cccnc2c1)c1nc2ccccc2c(=O)[nH]1	1	.	-9%	.	-3.7
CCCCn1c(N)c(N(Cc2ccccc2OC)C(=O)c2c(CC)noc2C)c(=O)[nH]c1=O	-3	.	.	.	-4.4
O=C(Nc1ccc2c(c1)OCO2)C1CCCN1C(=O)NCc1ccccc1 (centres undefined)	-3	-39	9%	9	2.8
OC1CCCN(C(=S)Nc2ccc(SC(F)F)cc2)C1 (centres undefined)	2	-24	2%	23	0.5
CC(Oc1ccccc1)C(=O)Nc1ccccc1O (centres undefined)	6	-42	9%	3	2.0
O=C1CC(NCc2ccccc2F)C(=O)N1c1ccccc1 (centres undefined)	8	-42	2%	-2	-0.2
Cc1cc(Br)cnc1NC(=S)Nc1ccc(F)cc1F	95	.	?	0	-0.2
O=C(CNC(=O)c1ccc(-c2ccccc2)cc1)OCc1ccc(Cl)cc1	83	-19	10%	-4	0.4
Cc1cc(OCC(=O)c2ccc(Br)cc2)ccc1N1C(=O)CCC1=O	5	0	3%	-1	1.0
COc1cc(S(=O)(=O)NC2CCCCC2)ccc1F	-7	-9	-13%	0	0.0
CC(C)c1ccc(NC(=O)Cc2ccc(NC3=NC4CS(=O)(=O)CC4S3)cc2)cc1 (centres undefined)	2	.	.	.	-5.5
CCCCNC(=O)c1cccc(NC(=O)C(=O)c2ccccc2NC(C)=O)c1	10	2	4%	0	-0.8
Cc1ccc(/C=C2/C(=O)NC(=O)N(C)C2=O)cc1	20	-22	-3%	3	3.7
Cc1c(C(=O)Nc2cccc(F)c2)cnn1-c1ccccc1	4	.	.	.	0.6
Cc1ccc(NCc2nnc(SCC(=O)Nc3ncc(C)s3)n2CC2CCCO2)c(C)c1 (centres undefined)	-2	-52	-5%	-3	-0.7
CN(C)CCCNc1cc(-c2ccccc2)nc2cc(-c3cccc(F)c3)nn12	100	.	.	.	-2.9
COc1ccccc1NS(=O)(=O)c1ccc(NC(=O)c2nc3ncccn3n2)cc1	.	33	5%	-1	0.8
COc1cc(/C=C/C(=O)OCC(=O)N2CCc3ccccc3C2)ccc1O	-2	-37	7%	2	3.1

Four entries out of the list, ordered by length of the SMILES, largest number first.
SMILES	Mtb bLac sens	YopH PTP inh	Mtb growth	Arbovirus anti	RecA intein inh	others
Cc1ccc(NCc2nnc(SCC(=O)Nc3ncc(C)s3)n2CC2CCCO2)c(C)c1 (centres undefined)	-2	-52	-5%	-3	-0.7
CN(C)CCCNc1cc(-c2ccccc2)nc2cc(-c3cccc(F)c3)nn12	100	.	.	.	-2.9
CCCCNC(=O)c1cccc(NC(=O)C(=O)c2ccccc2NC(C)=O)c1	10	2	4%	0	-0.8
Cc1ccc(/C=C2/C(=O)NC(=O)N(C)C2=O)cc1	20	-22	-3%	3	3.7

More structures follow.
SMILES	Mtb bLac sens	YopH PTP inh	Mtb growth	Arbovirus anti	RecA intein inh	others
Cc1cc(C(=O)N(C)CC(=O)Nc2ccc(Cl)c(C(F)(F)F)c2)no1	-6	.	.	.	0.1
Nc1cccc(C(=O)O)c1	4	-34	-6%	-2	1.7
COc1ccc(NC(=S)NN2CCOCC2)cc1OC	-2	-24	1%	-2	0.5
Cc1c(-c2ncn[nH]2)sc(C#N)c1-c1ccccc1	0	.	-2%	-4	4.3
CCC1Nc2ncnc(N3CCOCC3)c2N(Cc2ccc(C)cc2)C1=O (centres undefined)	-8	.	.	.	1.6
CC(O)CNCCCOc1ccccc1OCc1ccccc1 (centres undefined)	-2	.	-1%	-6	-0.4
NC(=O)CC(NC(=O)Cc1ccc(Cl)cc1)c1ccc(NC2CCN(Cc3ccccc3)CC2)c([N+](=O)[O-])c1 (centres undefined)	-2	.	.	.	-2.3
CCOC(=O)c1ccc(S(=O)(=O)N2CCN(S(=O)(=O)CC)CC2)cc1	-3	-39	-14%	10	1.7
Clc1cccc(OCCCCCN2CCOCC2)c1	-7	.	.	.	0.4
CCc1ccc2[nH]c(=O)c(CN(Cc3ccc4c(c3)OCO4)C(=O)c3ccco3)cc2c1	-4	-36	-12%	-6	0.9

Quoted at random: 6 compounds from above
SMILES	Mtb bLac sens	YopH PTP inh	Mtb growth	Arbovirus anti	RecA intein inh	others
Cc1cc(C(=O)N(C)CC(=O)Nc2ccc(Cl)c(C(F)(F)F)c2)no1	-6	.	.	.	0.1
Nc1cccc(C(=O)O)c1	4	-34	-6%	-2	1.7
CC(O)CNCCCOc1ccccc1OCc1ccccc1 (centres undefined)	-2	.	-1%	-6	-0.4
CCC1Nc2ncnc(N3CCOCC3)c2N(Cc2ccc(C)cc2)C1=O (centres undefined)	-8	.	.	.	1.6
CCOC(=O)c1ccc(S(=O)(=O)N2CCN(S(=O)(=O)CC)CC2)cc1	-3	-39	-14%	10	1.7
NC(=O)CC(NC(=O)Cc1ccc(Cl)cc1)c1ccc(NC2CCN(Cc3ccccc3)CC2)c([N+](=O)[O-])c1 (centres undefined)	-2	.	.	.	-2.3

(list continues)
SMILES	Mtb bLac sens	YopH PTP inh	Mtb growth	Arbovirus anti	RecA intein inh	others
CCSc1ccccc1C(=O)NC1CCCCC1	-5	.	5%	6	0.8
COc1ccc(OCCOC(=O)CCS(=O)(=O)c2ccc(C)cc2)cc1	3	.	.	.	-0.7
C#CCN1C(=O)C(O)(CC(=O)c2cccc(OC)c2)c2ccccc21 (centres undefined)	-2	-27	-5%	-16	2.1
O=C(c1ccccc1F)N1CCN(c2cccc(C(F)(F)F)c2)CC1	-9	-20	2%	-11	1.3
O=C(O)C[C@@H](CNC(=O)COc1ccc2ccc(=O)oc2c1)c1ccc(Cl)cc1	-8	.	.	.	-3.0
O=C(NCc1ccco1)c1ccc(COc2cc(Cl)ccc2Cl)cc1	5	-22	-3%	3	3.4
COCCCNC(=O)CCS(=O)(=O)Cc1ccc(C)cc1	0	-26	-22%	-3	-0.7
CCOc1ccc(C(=O)Nc2nnc(SCC(=O)NCC3CCCO3)s2)cc1 (centres undefined)	3	.	.	.	-5.4
Cc1cccc(C)c1Nc1nnc(SCc2nc3ccccc3s2)s1	-10	-8	-3%	16	7.7
Cc1c(NCc2cccnc2)cccc1C(=O)O	-6	.	.	.	-4.3
CCCCOc1ccc(C(O)C(CN2CCCCC2)c2ccccc2)cc1 (centres undefined)	-1	.	-1%	37*	0.0
COc1ccccc1C(=O)COC(=O)CN1C(=O)NC2(CCCC2)C1=O	-12	.	.	.	-4.0
CCOC(=O)C1=C(CSc2nccn2C)NC(=O)NC1c1ccc2c(c1)OCO2 (centres undefined)	-2	-37	1%	5	-0.9
CCC1Oc2ccc(C)cc2N(CC(=O)NCc2cc(OC)ccc2OC)C1=O (centres undefined)	3	-33	-4%	-4	-0.1
C/C(=N\Nc1ccc(S(=O)(=O)Nc2ccccc2)cc1[N+](=O)[O-])c1ccncc1	-1	.	4%	3	-1.4
BrC(/C=C\c1ccccc1)=N/Nc1nc(N2CCOCC2)nc(N2CCOCC2)n1	45	.	5%	13	-6.9
CSc1nc(C)c2c(n1)N(c1ccc(C(C)C)cc1)CC2	57	-30	.	-1	-1.4
Cc1ccc(C)c(OCC(O)CN2CCC(Cc3ccccc3)CC2)c1 (centres undefined)	7	.	.	.	2.8
CC(=O)c1cccc(NC(=S)NCCCCc2ccccc2)c1	20	-13	?	-1	5.3
Cc1ccccc1N(CC(=O)NC1CCCC1)C(=O)C1(C)CC(=O)N=C2C=CC(Cl)=CN21 (centres undefined)	0	.	.	.	-3.3
COc1ccccc1N1C(=O)CC(Sc2n[nH]c(-c3cccc(C)c3)n2)C1=O (centres undefined)	-5	-23	4%	2	10
CCc1ccccc1NC(=O)c1ccccc1N1C(=O)C2C3C=CC(C3)C2C1=O (centres undefined)	1	.	.	.	-0.1
COc1ccccc1NC(=S)N1CCN(c2cccc(C)c2C)CC1	8	.	.	.	1.4
COc1ccc(-c2cccc(C(=O)Nc3ccc(OC)c(OC)c3)c2)cc1	-2	-34	-7%	-8	0.6
O=C(NC1CCOCC1)C1CCC(=O)N(Cc2cccc(C(F)(F)F)c2)C1 (centres undefined)	3	.	.	.	0.8
C=CCOc1ccc(CNc2ccc3[nH]c(=O)[nH]c3c2)cc1OC	.	.	3%	5	.
CNC(=O)COC(=O)c1ccc2c(c1)NC(=O)C1CCCN21 (centres undefined)	-10	.	.	.	-481
CCOC(=O)C1CCN(C(C)=C2C(=O)c3ccccc3C2=O)CC1	-6	-13	0%	1	-1.0
Cc1cc(C)c(S(=O)(=O)Nc2cc(C)on2)c(C)c1	?	.	.	.	0.2
CCN(CC)S(=O)(=O)c1ccc(-c2cc(C(=O)OC)sc2C(F)(F)F)cc1	-1	.	0%	.	1.0
O=C(N/C(=C/c1ccccc1)C(=O)N1CCCCCC1)c1ccccc1	-6	.	1%	5	-0.5
O=C(O)c1cccc(NC(=O)c2ccccc2NC(=O)c2ccco2)c1	-3	.	.	.	-1.1
CCC(C)N(C(=O)COC(=O)Cc1n[nH]c(=O)c2ccccc12)C1CCS(=O)(=O)C1 (centres undefined)	-10	-24	-4%	1	1.5
Cc1cc(C)c2c(CC(=O)O)c(C)[nH]c2c1	7	.	11%	2	-19
Cc1cc(C)nc(NC(=S)NC(=O)c2ccccc2)n1	1	.	.	.	1.8
CCn1c(CNc2nc3ccccc3n2C(C)C)nc2ccccc21	10	4	-6%	11	7.9
CC(C)Oc1ccccc1NC(=O)CSc1nccn1C	-6	.	.	.	-2.5
CCc1nnc(NC(=O)C2CCCN2C(=O)Nc2ccc(C)cc2)s1 (centres undefined)	-3	.	.	.	-2.4
COc1ccc(CCNC2=CC(=O)CC(C)(C)C2)cc1	-6	.	-4%	.	-1.2
CCOc1ccc(C(CC(=O)O)NC(=O)c2cccs2)cc1OC (centres undefined)	-9	.	-9%	0	0.3
Cc1cc2c(c(=O)o1)C1(C(=O)N(CC(=O)O)c3ccccc31)C(C#N)=C(N)O2 (centres undefined)	4	-36	2%	11	-1.4
Cc1ccc(N(CC(=O)O)S(=O)(=O)c2cccc3nonc23)cc1	14	-9	-3%	1	1.4
CCn1c(C(C)NC(=O)c2cccs2)nc2ccccc21 (centres undefined)	-1	-28	3%	8	-0.4	Arbovirus anti repeat=1
N#Cc1ccccc1S(=O)(=O)N1CCN(CC(O)c2ccccc2)CC1 (centres undefined)	-10	.	-2%	3	0.5
O=C(Nc1cccc(F)c1)c1cccc(S(=O)(=O)N2CCOCC2)c1	-11	-22	-4%	3	-0.8
O=C(NC1CCC(O)CC1)c1ccc(-c2ccc([N+](=O)[O-])cc2)o1 (centres undefined)	-4	.	2%	.	1.2
CCOC(=O)c1sc(=S)n(-c2ccc(F)c(F)c2)c1N	-2	-30	2%	12	0.0
COc1ccc(C)cc1NC(=O)C(CCS(C)(=O)=O)NC(C)=O (centres undefined)	3	-32	0%	6	0.2
Cc1ccsc1/C=N\NC(=O)CCc1c(C)n[nH]c1C	2	.	-2%	3	0.6
CCC(C(=O)NCCC(C)C)n1ccc2cc(S(=O)(=O)N3CCCCC3)ccc21 (centres undefined)	4	.	.	.	5.1

The results go on:
SMILES	Mtb bLac sens	YopH PTP inh	Mtb growth	Arbovirus anti	RecA intein inh	others
COc1ccccc1OCC(=O)Nc1cccc(-c2nnc(-c3ccco3)o2)c1	8	.	5%	16	-5.6
Cc1ccc(CN2CCN(CCCn3cccn3)CC2CCO)cc1 (centres undefined)	0	.	5%	4	8.7
Cc1nn(-c2ccc(C(=O)Nc3nnc(C4CC4)s3)cc2)c(C)c1Cl	-5	-30	-3%	8	-2.7
Cc1ccc(NS(=O)(=O)c2ccc(OCC(=O)NCc3ccccn3)cc2)cc1	-4	.	.	.	-1.7
COc1ccc(C(=O)NC(Cn2ccnc2)C(C)(C)C)cc1OC1CCN(C(C)C)CC1 (centres undefined)	-2	.	.	.	1.6
CC(C)(C)C(=O)NC1CC2CCCC(C1)N2C(=O)Nc1ccccc1 (centres undefined)	-4	.	.	.	-3.4
N#Cc1c(-n2cccc2)cccc1-n1cccc1	.	-49	2%	-7	-0.9
COc1ccc(OC)c(NC(=O)Cc2cccs2)c1	4	.	.	.	2.0
Cc1sc2nc(CN3CCOCC3)nc(NCCc3ccccc3)c2c1C	91	-12	6%	-12	-2.1
O=C(N/N=C/c1ccc[nH]1)c1sc2ccccc2c1Cl	96	-13	60%	-30	3.0
Cc1cccc(N2CCN(C(=O)c3noc4c3COc3ccc(C)cc3-4)CC2C)c1 (centres undefined)	-3	.	.	.	0.6
O=C(CSc1ccccc1)NCc1ccco1	-8	-14	-3%	-6	0.6

Not all compounds are listed (hit frequency here may not be typical).
